Source: PubChem
KCNQ2 inh – KCNQ2 channel blockers in CHO-K1 cells – cell-based, FluxOR thallium flux, B-score, primary screen (AID 2156); O88943; 20 min; active compounds read low; only compounds with negative scores are shown here; some inactives read as strong as hits; B-score at 10 µM; hit rate 1.1% among 310,000;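 active = fluorescence ratio B-score at most minus 3 library SDs, with starting brightness B-score within 2 library SDs, cut at about -5.5 in these data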
Target sequence (O88943 whole entry, looked up): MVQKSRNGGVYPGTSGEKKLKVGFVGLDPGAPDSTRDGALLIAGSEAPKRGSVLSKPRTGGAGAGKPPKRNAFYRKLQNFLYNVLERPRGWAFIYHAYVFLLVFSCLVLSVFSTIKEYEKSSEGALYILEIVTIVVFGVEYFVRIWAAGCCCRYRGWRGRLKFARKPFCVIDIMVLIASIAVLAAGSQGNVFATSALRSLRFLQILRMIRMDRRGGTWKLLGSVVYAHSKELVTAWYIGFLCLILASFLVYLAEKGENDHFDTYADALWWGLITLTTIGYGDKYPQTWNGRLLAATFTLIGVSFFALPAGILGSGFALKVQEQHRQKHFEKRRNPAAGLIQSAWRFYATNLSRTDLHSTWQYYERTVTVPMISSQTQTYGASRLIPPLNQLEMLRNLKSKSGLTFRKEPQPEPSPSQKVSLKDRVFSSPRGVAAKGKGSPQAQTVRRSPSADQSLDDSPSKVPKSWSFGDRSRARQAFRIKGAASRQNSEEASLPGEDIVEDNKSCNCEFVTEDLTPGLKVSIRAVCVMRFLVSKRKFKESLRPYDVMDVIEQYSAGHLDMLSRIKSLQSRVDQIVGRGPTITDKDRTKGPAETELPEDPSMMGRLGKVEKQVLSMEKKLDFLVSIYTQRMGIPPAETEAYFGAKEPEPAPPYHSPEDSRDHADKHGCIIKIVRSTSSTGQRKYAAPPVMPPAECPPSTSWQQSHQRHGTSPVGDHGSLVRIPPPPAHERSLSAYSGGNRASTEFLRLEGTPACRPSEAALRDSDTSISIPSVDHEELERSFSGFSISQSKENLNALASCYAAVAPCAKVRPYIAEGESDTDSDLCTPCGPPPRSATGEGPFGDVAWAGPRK
KCNQ2 inh baseline – recorded beside KCNQ2 inh, whose call it bears; B-score; measured here: initial fluorescence intensity artifact check;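 brightness before thallium and not channel activity; 0 = typical well and far values either way flag optical interference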
Numbers without * were called inactive; i = inactive. The list is partial; rates above refer to the full screens.

compound,KCNQ2 inh,KCNQ2 inh baseline
O=C(Nc1ccccc1C(=O)NC(Cc1ccccc1)C(=O)NC1CCCCCC1)c1ccccc1 (stereo not given),i,0.54
Cc1ccc(S(=O)(=O)NC2=C(N3CCN(c4ccccc4F)CC3)C(=O)c3ccccc3C2=O)cc1,i,0.06
CCOC(=O)N1CCN(C(=O)c2ccc(S(=O)(=O)NCc3ccco3)cc2)CC1,i,0.84
COc1cc(NS(=O)(=O)c2ccc(NC(=S)NC(C)=O)cc2)nc(OC)n1,i,-2.1
Cc1oc2ccc(O)c(CN3CCOCC3)c2c1C(C)O (stereo not given),i,1.7
COc1ccc(OC)c(NC(=O)Cn2nc(C)c3ccccc3c2=O)c1,i,0.76
CCN(C(=O)CN1CCN(S(=O)(=O)c2ccccc2C(F)(F)F)CC1)c1c(N)n(Cc2ccccc2)c(=O)[nH]c1=O,i,0.42
COc1ccc(Cc2nc3ccc(C(=O)NCCc4ccncc4)cc3o2)cc1OC,i,1.2
Cc1ccc(CNC(=O)Nc2ccc(OC(F)(F)F)cc2)n1C,i,-0.61
NS(=O)(=O)c1cccc(NC(=O)COC(=O)CCSc2ccccc2)c1,i,1.7

Record cards, from the list above. Screens in order: KCNQ2 inh | KCNQ2 inh baseline
Profile of Cc1oc2ccc(O)c(CN3CCOCC3)c2c1C(C)O (stereo not given) : i | 1.7
Profile of Cc1ccc(CNC(=O)Nc2ccc(OC(F)(F)F)cc2)n1C : i | -0.61
Profile of COc1cc(NS(=O)(=O)c2ccc(NC(=S)NC(C)=O)cc2)nc(OC)n1 : i | -2.1
Profile of COc1ccc(OC)c(NC(=O)Cn2nc(C)c3ccccc3c2=O)c1 : i | 0.76
Profile of COc1ccc(Cc2nc3ccc(C(=O)NCCc4ccncc4)cc3o2)cc1OC : i | 1.2

The list goes on.
compound,KCNQ2 inh,KCNQ2 inh baseline
CC(C(=O)Nc1ccccc1C(=O)N1CCOCC1)N(c1ccc(Cl)cc1)S(C)(=O)=O (stereo not given),i,-1
O=C(N[C@H]1CCC(=O)N([C@H](CSc2ccccc2)Cc2ccccc2)CC1)OCc1ccccc1,i,0.39
COc1ccc(OC)c(N2Cc3cc(C)c(C)cc3C2)c1,i,-2.1
Cc1c(C(=O)N2CCN(c3ccc(C(F)(F)F)cn3)CC2)oc2ccccc12,i,-0.31
c1ccc(N2CC3CCc4ccccc4C3=N2)cc1 (stereo not given),i,-0.42
COc1ccc(Cn2c(-c3ccccc3C)nc3c(c(=O)c4ccccc4n3C)c2=O)cc1,i,0.35
Cc1occc1C(=O)N1CCN(C(c2ccccc2)c2ccccc2)CC1,-6.4*,1.5*
CC(NC(=O)C(=O)N/N=C/c1ccccc1)c1ccccc1 (stereo not given),i,0.3
O=c1cc(-c2ccccc2)c2cc3c(cc2[nH]1)OCCO3,i,-0.12
Cc1cccc2nc(CSCc3ccco3)cn12,i,0.12
CCc1ccc(NC(=S)NNC(=O)c2ccccc2OC(F)F)cc1,i,2
O=S(=O)(NCc1ccc(F)cc1)c1cccc(S(=O)(=O)N2CCOCC2)c1,i,0.21
Cc1ccc(S(=O)(=O)/N=C(/NNC(=O)c2cccc(Cl)c2)c2ccccc2)cc1,i,-0.18
Cc1ccc(N(CC(=O)NC(C)c2ccccc2)S(=O)(=O)c2cccs2)cc1 (stereo not given),i,0.08
COc1ccc(Cn2cnc3c(N)c(C)c(C)cc32)cc1,i,-0.08
Cc1ccc(-c2c(NC(=O)c3ccco3)oc3ccccc3c2=O)cc1,i,-0.59
O=C(NCc1ccccc1)C1=C[C@H](c2csc3ccccc23)C[C@H](OCCCCO)O1,i,-0.66
CCOC(=O)c1ccc(N=c2scc(C)n2CC)cc1,i,0.76
O=C(COC(=O)c1cc(S(=O)(=O)N2CCOCC2)ccc1O)Nc1cc(S(=O)(=O)N2CCCC2)ccc1Cl,i,2.9
S=C1N[C@H]2CCCC[C@@H]2N1,i,-0.22
COC(=O)N1C(=O)[C@](c2ccccc2)(C2CCCCC2)N1C(=O)OC,i,-1.2
CN(CC(=O)NCCc1ccc(Cl)cc1)S(=O)(=O)c1cccs1,i,-0.37
COc1ccc(-c2csc(N(CC3CCCO3)C(=O)c3ccco3)n2)cc1 (stereo not given),i,0.88
COc1ccc(C(=O)NCCSc2ccccc2C)cc1,i,0.6
CCc1ccc(N(C(=O)c2csnn2)C(C(=O)NC(C)(C)CC)c2cccnc2)cc1 (stereo not given),i,1.1
Cc1cc2nc(-c3ccc(=O)[nH]c3)n(C)c2cc1C,i,-1.7
S=C(Nc1cccc(Cl)c1)Nc1ccccc1Oc1ccccc1,i,3.3
CC(=O)Nc1nc(C=C(Cl)Cl)cs1,i,1.4
COc1ccc(O[C@H]2C=C[C@@H](c3ccccc3)O[C@@H]2COC(=O)CC/C(C)=N/OC[C@@H](O)COCc2ccco2)cc1,i,-1.4
Cc1nn(-c2ncc(C(F)(F)F)cc2Cl)c(=O)n1-c1cccc(F)c1,i,1.5
CC1(c2ccc(OC(F)F)cc2)NC(=O)N(CC(=O)Nc2ccc(N3CCCCC3)cc2)C1=O (stereo not given),i,-0.51
Clc1ccc(-n2cccc2CN2CCc3c([nH]c4ccccc34)C2c2ccccn2)nc1 (stereo not given),i,-0.33
COc1ccc(OC)c(S(=O)(=O)N2CCC(C(=O)NC3CC3)CC2)c1,i,-0.09
O=C(c1ccc(F)cc1)N1CCN(c2cc(N3CCCCC3)c(F)cc2[N+](=O)[O-])CC1,i,-0.26
Cc1ccc(CNC(=O)CSCc2ccccc2F)cc1,i,-0.87
CC(C)CCOc1ccc(C(=O)NN2C(=O)NC3(CCCCC3)C2=O)cc1,i,0.32
CC1=C(/C=C/C(C)=N\NC(=O)c2ccncc2)C(C)(C)CCC1,i,1.9
O=C(NCCCN1CCCC1=O)Nc1ccccc1F,i,-0.27
Cc1ccc(OCCNC(=O)c2ccc(COc3ccccc3)o2)cc1,i,-1.6
Cc1ncc(CN2CCCC(C(=O)Nc3ccc(-c4ccco4)cc3)C2)n1C (stereo not given),i,0.48

4 structures out of the list, sorted by SMILES length, largest number first:
compound,KCNQ2 inh,KCNQ2 inh baseline
O=C(c1ccc(F)cc1)N1CCN(c2cc(N3CCCCC3)c(F)cc2[N+](=O)[O-])CC1,i,-0.26
CC(C)CCOc1ccc(C(=O)NN2C(=O)NC3(CCCCC3)C2=O)cc1,i,0.32
Cc1ccc(CNC(=O)CSCc2ccccc2F)cc1,i,-0.87
O=C(NCCCN1CCCC1=O)Nc1ccccc1F,i,-0.27

Continuation:
compound,KCNQ2 inh,KCNQ2 inh baseline
N#CC1=C(N)NC(SCc2ccc(Br)cc2)=C(C#N)C12CCCCC2,i,0.1
CCC(=O)Oc1ccc(C/C(=N\O)c2ccc(O)cc2O)o1,i,3.4
COc1cccc(N2CCN(C(=O)c3cc4c(=O)n(Cc5ccccc5)ccc4nc3C)CC2)c1,i,-0.74
COc1ccc(OCc2nnc(SCC(=O)Nc3cccc(Cl)c3)o2)cc1,i,0.25
Cc1snc(SCc2cccc(Cl)c2)c1C#N,i,0.66
Cn1cc(/C=C(\NC(=O)c2ccccc2Cl)C(=O)NCCCN2CCOCC2)c2ccccc21,i,-0.5
COc1ccc(/C=C(\C#N)C(=O)Nc2cccc3ncccc23)cc1OC,i,0.13
CCc1ccc2c(c1)C(c1ccc([N+](=O)[O-])cc1)=NNC(c1ccc(C)cc1)=N2,i,-1.5
C=CCn1c(SCc2nc(N)nc(N3CCCCC3)n2)nnc1-c1ccco1,i,1.2
O=C(CNCc1cccc2ccccc12)Nc1ccccc1[N+](=O)[O-],i,-1.3
Cc1ccn2c(Nc3ccccc3C)c(-c3ccccn3)nc2c1,i,7.4
Fc1ccc(NC(=S)NN=C2CCCCCC2)cc1,i,-0.55
CN(C)c1nc(NCc2ccccc2)nc(N/N=C/c2ccc3c(c2)OCO3)n1,i,1.5
O=C(Oc1c(-c2ccco2)oc2ccccc2c1=O)c1cccnc1,i,0.1
Cc1ccc(OCC(=O)NCc2ccccn2)c(Br)c1,i,1.7
C/C(=N\Nc1nncc2ccccc12)c1cccc(OC(F)F)c1,i,0.02
O=C(C1CCC(CNS(=O)(=O)c2ccccc2)CC1)N1CCOCC1 (stereo not given),i,-0.27
O=C(NCc1ccccn1)c1ccc(Cl)c(NC2=NC3CS(=O)(=O)CC3S2)c1 (stereo not given),i,-0.78
COc1ccc(/C=N/Nc2nnc(C)n2N)cc1OC(C)=O,i,-0.01
COc1cccc(NC(=O)COC(=O)c2nc3nccc(C)n3n2)c1,i,1.7
CCn1c(CSc2nc(C)cc(C)n2)nnc1SCC(=O)Nc1cccc2ccccc12,i,-1.1
Cc1ccc([N+](=O)[O-])cc1S(=O)(=O)N1CCC(C)CC1,i,1.1
Cc1ccccc1NC(=O)NCCN1C(=O)C2C3C=CC(C3)C2C1=O (stereo not given),i,-1.2
Cc1cc(C(=O)NCC(=O)OCC(=O)N(C2CCCCC2)C2CCCCC2)ccc1[N+](=O)[O-],i,1.9
CC(CC(=O)O)CC(=O)N1CCN(S(=O)(=O)c2cccs2)CC1 (stereo not given),i,-2
COc1cc(CNCc2cccc3ccccc23)cc(OC)c1,i,0.14
O=C(O)CC1(c2ccccc2)C(=O)c2ccccc2C1=O,i,0.89
O=[N+]([O-])c1ccccc1S(=O)(=O)Nc1ccc2c(c1)OCCO2,i,-1.3
CCN(CC)CCCNC(=O)C1CCC(=O)N(c2ccc(OC)cc2)C1c1ccc(F)cc1 (stereo not given),i,0.12
CC(=O)c1c(C)[nH]c(C(=O)NC2CCCCC2)c1C,i,1.6
Cc1csc(SCC(=O)Nc2ccccc2)n1,i,-0.27
CCOC(=O)C1(Cc2cccc(Cl)c2)CCCN(C(=O)C(C)(C)C)C1 (stereo not given),i,-0.47
O=C(NC1CCCCC1)[C@@H]1CC=C[C@@H]2CCN(C3CCCCC3)C(=O)[C@@H]21,i,-0.9
O=C(N/N=C/c1ccc(-c2cccc(C(F)(F)F)c2)o1)c1ccccc1Br,i,-0.62
COc1ccc(/C=N/n2cnc3c([nH]c4ccccc43)c2=O)cc1COc1ccccn1,i,0.06
CCOc1cc([C@@H]2C[C@H]3CN(c4ccccc4)C(=O)[C@]34CCCN24)ccc1OC,i,3.2
S=C(Nc1cccc(Cl)c1Cl)NC1CCN(Cc2ccccc2)CC1,i,1.9
CCC(CC)NC(=O)c1ccccc1Oc1ccccc1,i,-1.4
COc1cc(NC(=O)c2ccccc2Cl)c(OC)cc1NC(=O)CN1CCCCC1,i,-2
NC(=O)c1nsc(C(=O)N(CC(=O)NC2CCCC2)Cc2ccc3c(c2)OCO3)c1N,i,1.8
CS(=O)(=O)N1CCN(CCN2C(=O)c3cccc4cccc(c34)C2=O)CC1,i,-1.3
O=C(CCC(=O)N(CC(=O)NC1CCCC1)Cc1cccs1)Nc1nccs1,i,-0.04
O=C(NCCc1c[nH]c2ccccc12)/C(=C\c1cccs1)NC(=O)c1ccccc1,i,-1.2
C=CCNC(=O)CCCC(=O)NCC=C,i,0.29
CCOC(=O)C1(Cc2cccc(OC)c2)CCCN(Cc2cnn(C)c2)C1 (stereo not given),i,-0.02
COc1ccc(-c2nc(C#N)c(NCCCN3CCOCC3)o2)cc1,i,0.06
O=C(NC1CCN(Cc2ccccc2)CC1)c1cccc(Br)c1,i,0.02
CCN(Cc1ccccc1)c1ccc(/C=C(\C#N)c2ccccn2)cc1,i,0.01
CC(C)=C1C2CCC1C(C(=O)NCc1ccccc1)C2C(=O)O (stereo not given),i,0.21
C(=N\N(Cc1ccccc1)c1ccccc1)/c1ccco1,i,0.72

Further entries
compound,KCNQ2 inh,KCNQ2 inh baseline
CCOc1ccc(Nc2nc(Cc3nnc(SCC(=O)NCC4CCCO4)n3C)cs2)cc1 (stereo not given),i,-0.63
CC1(C)Cc2c(ccc3ccccc23)/C(=C/C#N)N1,i,-0.05
CSc1ccc(CN(C)C(C)C(=O)Nc2ccc(F)c(F)c2F)cc1 (stereo not given),i,4.3
COc1cccc(-c2nn(C)c3sc(C(=O)N4CCN(c5ccccn5)CC4)cc23)c1,i,1.4
CC(C)(C)C1=C(C#N)C(c2ccncc2)C(C#N)=C(N)O1 (stereo not given),i,1.4
c1ccc(-c2nc(-n3ccnc3)nc(-n3ccnc3)n2)cc1,i,0.28
Cc1ccc(-n2c(SCC(=O)Nc3cc(S(=O)(=O)N4CCOCC4)ccc3Cl)nc3ccccc3c2=O)cc1,i,1.7
Cn1c(=O)c2c(ncn2CC(=O)N2CCN(S(=O)(=O)c3ccccc3)CC2)n(C)c1=O,i,2.7
CCOC(=O)C1=C(N)OC(CCl)=C(C#N)C1c1ccsc1 (stereo not given),i,0.16
CCC(=O)NC(c1ccc(C)cc1)c1cc([N+](=O)[O-])c2cccnc2c1O (stereo not given),i,-0.62
O=C(Nc1ccccc1Cl)c1ccc2nsnc2c1,i,-0.9
COc1cc(C(=O)Nc2c(C(=O)O)[nH]c3ccc(C)cc23)cc(OC)c1OC,i,-1.5
O=C(Nc1ccncc1)Nc1ccc(F)c(Cl)c1,i,2.1
Cc1ccc(-c2nn(-c3ccccc3)cc2NC(=O)CCl)cc1,i,-1.1
O=C1CSC(=S)N1Cc1cccnc1,i,-1
COc1cccc(Oc2ccc(S(=O)(=O)N3CCCC3)cc2[N+](=O)[O-])c1,i,-0.22
